Screening data from PubChem BioAssay.
Six1-Eya2 inh: Six1/Eya2 interaction inhibition | AID 651725 | activity change, % (no concentration beside the values) | AlphaScreen GST-Six1/His-Eya2 binding, biochemical; hits give low values; control for the full effect not named in the record | 0.56% of 360,000 active | Q15475+O00167; in the data active = activity change below about -65%; inconclusive = about -30% to -65%; inactive = above about -30%; note: % is set by controls: 0 for no effect and ±100 for the full control effect; compound concentration not given in the record
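GST-Six1 + His-Eya2 (5X stock: 250/500 nM); Tris pH 8.0, 300 mM NaCl, 0.05% BSA, 0.02% Tween 20; GSH donor/Ni acceptor beads; 1 h 37 °C dark; AlphaScreen readout.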
CtBP-E1A inh: CtBP/E1A binding inhibition; AlphaScreen GST-E1A/His-CtBP binding, 1536-well; hits give low values; control for the full effect not named in the record; activity change, % (concentration not given with the values); 0.49% of 340,000 active; AID 651724; in the data active means activity change below about -65%; inconclusive means about -30% to -65%; inactive means above about -30%; note: % is set by controls: 0 for no effect and ±100 for the full control effect
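AlphaScreen with 125 nM GST-E1A and 125 nM His-CtBP (5X stocks) in Tris pH 8.0, 300 mM NaCl, BSA, Tween 20, TCEP. Compounds preincubated 2 h at 37 deg C, then glutathione donor/nickel acceptor beads added for 1 h at 37 deg C in dark.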
D2 PAM: potentiates the human D2 dopamine receptor allosterically | AID 624464 | 0.23% of 360,000 active | P14416 | DiscoveRx D2 beta-arrestin cells, luminescence, 90 min; 100% = 57 uM dopamine signal | potentiation, % (no concentration beside the values); active = potentiation of 50% or more; inconclusive = 30% to 50%; inactive = 30% or less;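 note: compound concentration not given in the record; tested on top of an EC20 dose of dopamine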
Target sequence (P14416 whole entry, looked up): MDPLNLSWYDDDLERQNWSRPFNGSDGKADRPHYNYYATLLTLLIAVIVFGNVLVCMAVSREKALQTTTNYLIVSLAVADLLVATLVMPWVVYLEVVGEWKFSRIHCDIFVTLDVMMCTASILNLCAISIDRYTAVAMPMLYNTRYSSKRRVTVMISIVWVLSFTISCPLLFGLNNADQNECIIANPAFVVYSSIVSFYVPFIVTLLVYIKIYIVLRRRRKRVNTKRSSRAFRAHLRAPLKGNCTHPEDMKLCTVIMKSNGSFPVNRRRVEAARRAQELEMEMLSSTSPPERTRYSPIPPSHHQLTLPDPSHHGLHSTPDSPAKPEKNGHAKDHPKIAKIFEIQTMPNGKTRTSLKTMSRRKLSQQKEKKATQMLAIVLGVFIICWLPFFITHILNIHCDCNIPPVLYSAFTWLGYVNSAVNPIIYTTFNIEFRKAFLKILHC
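D2 cells co-treated with compound plus 50 nM dopamine (EC20) for 90 min at 37 deg C to detect potentiation. Beta-arrestin recruitment was read as enzyme-fragment luminescence after 1 h at ambient temperature. Full response was set by 57 uM dopamine.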
gsp antagonist: gsp mutant antagonism | gsp-mutant cells, cAMP HTRF, 30 min; control for the full effect not named in the record | Potency, µM (doses to about 76.9 µM), for inactives: at the highest dose activity change, negative = inhibition, usual class: inhibitors | 0.4% of 340,000 active | AID 624288; active = falling curve of any shape with a large fitted effect; inconclusive = falling curve, mostly with a smaller effect; inactive = flat or rising curve; cell line not stated here;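 note: intracellular cAMP measured with PDE inhibitor Ro 20-1724 present during compound exposure; potency is the fitted concentration of half-maximal effect; % is set by controls: 0 for no effect and ±100 for the full control effect; nearly all actives have a fitted effect of over 65% in size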
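HTRF cAMP read-out (cAMP-d2 plus anti-cAMP antibody-K in lysis buffer, 30 min RT). Before lysis, cells are exposed to compounds with […] for 30 min at 37C in DPBS containing Ca/Mg, BSA and Tween 20.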
D2 ag: activates the human D2 dopamine receptor | P14416 | DiscoveRx PathHunter D2 beta-arrestin, luminescence, 90 min; 100% = 57 uM dopamine signal | activation, % (no concentration beside the values) | 0.084% of 360,000 active; in the data active = activation above about 40%; inconclusive = about 15% to 40%; inactive = below about 15%; note: compound concentration not given in the record; the text of the record calls up to 30% inactive
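Agonist mode: compounds alone added to overnight-plated D2 PathHunter cells for 90 min at 37 C, with 57 uM final dopamine (EC100) defining full response. Beta-arrestin recruitment detected by chemiluminescent reagent, read after 1 h at ambient temperature.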
gsp agonist: activates gsp, the McCune-Albright syndrome mutation; gsp mutant cells, cAMP HTRF, 30 min; control for the full effect not named in the record; Potency, µM (series often up to 76.9 µM), inactives show at the highest dose activation (cAMP increase), hits mostly activators; 0.13% of 340,000 active; active = well fitted activation curve with a large enough effect; inconclusive = small, poorly fitted or top-dose-only effect, or another doubt; inactive = no such curve, though single readings can be large or run the other way; cell line not stated here;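 note: phosphodiesterase inhibitor Ro 20-1724 added with compounds to block cAMP breakdown; potency is the fitted concentration of half-maximal effect; nearly all actives have a fitted effect of over 60% in size; about a fifth of the inactives were tested at one dose only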
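Cells stably selected in G418 were plated at 2000/well, grown 16-24 hr, then given compounds in DMSO with the PDE inhibitor […] (300 uM solution added) for 30 min at 37C; cAMP was read by HTRF.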
* hit, by the source's call; ? = inconclusive; . = not tested or not shown; [ ] = another dose, or the depositor's remark.

SMILES	Six1-Eya2 inh	CtBP-E1A inh	D2 PAM	gsp antagonist	D2 ag	gsp agonist
CC(C)N1CCC(=NNC(=O)c2ccc(Br)o2)CC1	3	-4	-1	-2%	-2.9	18%
Oc1[nH]c2ccccc2c1N=Nc1nc(Nc2ccccc2)nc(N2CCOCC2)n1	2	.	-14	-18%	-1.5	-5%
COc1ccc(N(CC(=O)NCc2ccc(C)cc2)S(=O)(=O)c2c(C)[nH]c(=O)[nH]c2=O)cc1	5	.	-5	4%	-0.6	-22%
O=C(NCc1ccccc1)c1c[nH]c2ccc(F)cc2c1=O	-1	.	13	-7%	3.4	-28%
O=C(NCc1nc(-c2ccccc2)cs1)c1ccccc1	-4	0	-5	9%	-3.0	-44%[15.4 µM]
CC(C)NC(=O)Cn1cc(C(=O)COc2ccccc2)c2ccccc21	-5	1	-3	-5%	-5.2	-1%
CCN1CCN(C(=O)c2cc3ccc(OC)cc3[nH]2)CC1	1	3	-16	9%	1.1	-9%
CC(=O)N(Cc1cc(=O)[nH]c2ccccc12)c1ccccc1	7	2	-2	11%	-4.5	-3%
Cn1c(NCCO)nc2c(c1=O)C1(CCCCC1)Cc1ccccc1-2	6	-2	-15	-18%	-6.3	11%
C=CCn1c(SCC(=O)Nc2c(C)cccc2C)nnc1-c1ccncc1	10	-1	-5	3%	4.0	-28%
COC(=O)C1=[N+]([O-])OC(C(=O)OC)C1c1c[nH]c2ccccc12 (stereo not given)	6	-4	-7	-4%	3.0	8%
CC(=O)Nc1ccc(S(=O)(=O)N(C)CC(=O)Nc2nc3ccccc3[nH]2)cc1	-11	-2	-5	-3%	-2.6	-4%[15.4 µM]
CCOC(=O)CC1C(=O)NCCN1c1nc2ccc(C)cn2c(=O)c1/C=C1\SC(=S)N(CC(C)C)C1=O (stereo not given)	7	-18	-4	-26%	-4.1	9%[15.4 µM]
COc1ccccc1NC(=O)CON=C(N)CC(=O)NC1CCCCC1	3	.	-5	3%	-2.0	13%
COc1ccc(N2CCN(S(=O)(=O)c3ccc(OC)c(C(=O)N4CCCCC4)c3)CC2)cc1	-17	0	-9	-27%	-0.4	19%[15.4 µM]
Cc1cc(C)nc(N/N=C/c2c(C)oc3ccccc23)n1	0	-3	-5	-5%	-7.9	-41%[inhibitor]
CC(=O)c1sc(-c2ccccc2)cc1NS(=O)(=O)c1ccc(C)cc1	-3	0	-3	?	-4.2	?
O=[N+]([O-])c1ccc(CNC2CCCc3ccccc32)cc1 (stereo not given)	-4	2	-20	4%	0.1	21%
COc1ccc(CN(CC(=O)NCCc2ccccc2)C(=O)CCC(=O)Nc2ccccn2)cc1	7	-11	-10	2%	-1.5	19%[15.4 µM]
O=C(NCC(=O)N1CCOCC1)OCc1ccccc1	6	.	23	4%	-3.3	-2%
CC(OC(=O)c1ccccc1C(=O)N(C)C1CCCCC1)C(=O)NC1(C#N)CCCCC1 (stereo not given)	8	-18	-1	10%	-5.8	16%
COc1ccc(CCNC(=O)Cn2nnc(C(=O)Nc3cc(C)ccc3C)c2N)cc1OC	-2	3	-1	-2%	1.4	-30%
CSC[C@H]1CN(Cc2ccccc2)C(=O)[C@@H]1CC(=O)Nc1ccccc1	2	4	.	.	-4.3	-26%
CCOC(=O)CC(NS(=O)(=O)c1ccc(OC)c(C)c1)c1cccc([N+](=O)[O-])c1 (stereo not given)	-1	0	7	-3%	-2.7	-3%
O=C(Oc1ccc(F)cc1)c1ccc2c(=O)n3c(nc2c1)CCC3	0	-4	7	-8%	6.9	-7%[15.4 µM]
SMILES	Six1-Eya2 inh	CtBP-E1A inh	D2 PAM	gsp antagonist	D2 ag	gsp agonist
CN1CCN(S(=O)(=O)c2ccc3c(c2)C(C)(C)C(=O)N3C)CC1	0	4	0	4%	-2.2	-34%[inhibitor]
CCOC(=O)Cn1nc(-c2ccc(F)cc2)cc(Cc2ccccc2)c1=O	1	1	-9	-20%	-2.8	9%
COc1cccc(NC(=O)C2CCN(S(=O)(=O)c3ccc4c(c3)NC(=O)CO4)CC2)c1	-4	-7	-27	-2%	-4.3	25%
CCN(CC)c1nc2ccccc2nc1-n1nc(C)cc1C	34	27	-5	-4%	-2.5	?
COc1ccc(C(C#N)N2CCC(c3ccccc3)=N2)cc1OC (stereo not given)	2	1	6	8%	-0.3	-3%[15.4 µM]
O=C(Nc1nnc(C2=COCCO2)o1)c1cccc(C(F)(F)F)c1	-15	-3	-13	7%	-5.8	13%
Cc1cc(C(=O)Nc2c(F)c(F)c(F)c(F)c2F)n(-c2ccccc2)n1	?	-20	2	-9%	0.2	-12%[15.4 µM]
Cc1ccc(-c2nnn(CC(=O)N(c3ccccc3F)C(CC(C)C)C(=O)NCC3CCCO3)n2)cc1 (stereo not given)	8	-5	-14	-1%	-1.0	15%
C#Cc1ccc(NC(=O)C2(C)CCN2C(=O)Cc2ccc(C(C)C)cc2)cc1 (stereo not given)	0	4	-3	.	4.0	.
S=C(c1ccc(-c2ccc(Cl)c(Cl)c2)o1)N1CCOCC1	?	6	5	0%	0.0	?
CCOC(=O)c1ccc(-c2ccc(C(=O)Nc3cccnc3)o2)cc1	-24	-16	13	-11%[15.4 µM]	-1.4	0%
CCOC(=O)Cn1c(=O)oc2cc(S(=O)(=O)N3CCCc4ccccc43)ccc21	-3	1	-3	-3%	-3.7	-35%[inhibitor]
CCOC(=O)c1c(N2C(=O)CC(Sc3ccccc3C(=O)O)C2=O)sc2c1CCCC2 (stereo not given)	-28	-11	-1	-11%	-0.4	7%
COc1ccc(CNC(=O)CS(=O)(=O)Cc2nc(-c3ccc(OC)cc3)oc2C)cc1	3	6	-2	-7%	1.5	-35%[inhibitor]
O=c1c2ccccc2ncn1-c1cccc(Cl)c1	-2	2	-8	7%[15.4 µM]	-5.1	-11%
CCN(CC)CC#CCC(O)(c1ccccc1)c1ccccc1	13	0	-15	4%	-4.4	-1%[15.4 µM]
O=c1c2ccccc2nc(-c2ccccc2)n1Cc1ccc(Cl)cc1	4	-1	-5	-20%	-2.4	4%
CN(Cc1cnccn1)Cc1ccccc1OCC(O)CN1CCc2ccccc2C1 (stereo not given)	-4	1	-19	4%	1.7	?
COc1ccc(N(CC(=O)Nc2ccc(S(=O)(=O)N3CCOCC3)cc2)S(C)(=O)=O)cc1OC	-6	0	-5	.	-1.2	-19%
CCOC(=O)C1(C)CCN1C(=O)c1cc(-c2ccc(Cl)cc2)oc1C (stereo not given)	0	-2	-1	.	2.4	.
CCN(CC)c1ccc(C(=O)NNC(=O)CCNC(=O)c2ccccc2)cc1	-3	5	-16	-8%	-2.9	-15%
Cc1cccc(C)c1NC(=S)N(CCCN1CCOCC1)Cc1cccnc1	-2	-2	-1	4%	-1.4	-3%[15.4 µM]
CCCCC1(CC(=O)OCC)SCCN1C(N)=O (stereo not given)	-1	-8	-7	.	-9.4	?
COc1ccc(C(=O)N2CCOC2CNC(=O)C(=O)NCc2ccccn2)cc1 (stereo not given)	-5	-2	-6	.	1.4	1%
Cc1ccc(NC(=O)c2nc[nH]c2C(=O)NCCCCNC(=O)c2[nH]cnc2C(=O)Nc2ccc(C)cc2)cc1	3	7	12	9%	4.2	.
SMILES	Six1-Eya2 inh	CtBP-E1A inh	D2 PAM	gsp antagonist	D2 ag	gsp agonist
O=C(c1ccccn1)N1CCN(S(=O)(=O)c2ccccc2)CC1	5	1	0	4%	0.9	10%
CCCCc1ccc(NC(=S)N2CCCC(C)C2)cc1 (stereo not given)	1	-1	-5	7%	-3.0	1%[15.4 µM]
CCOc1ccc(Cn2cc(F)c(=O)[nH]c2=O)cc1	4	.	6	-3%	5.4	2%
O=C(COC(=O)C1=Cc2ccccc2OC1)NCc1ccc(F)cc1	17	4	-3	-15%	-6.0	17%[15.4 µM]
COc1ccc(C2C(C(=O)N3CCN(c4ccccn4)CC3)CC(=O)N2c2ccc(OC)cc2)cc1 (stereo not given)	23	32	5	4%	-1.4	0%
COC(=O)c1ccc(COC(=O)CCNS(=O)(=O)c2ccc(C)c(C)c2)cc1	0	9	15	-22%	3.7	-6%[15.4 µM]
O=C(NCc1ccc(Cl)cc1Cl)Nc1nc([C@@H]2O[C@H](CO)[C@@H](O)[C@H](O)[C@H]2O)cs1	-2	3	-7	.	7.5	.
CCOC(=O)C1=C(c2ccccc2)NC(=O)NC1c1cc(OC)c(O)c([N+](=O)[O-])c1 (stereo not given)	-2	.	8	-20%	-0.6	-22%
O=Cc1[nH]c2ccccc2c1N(C(=O)CCl)c1ccc([N+](=O)[O-])cc1	-4	0	-5	2%	-1.2	43%
CCOC(=O)CC1=C(C#N)C(c2cccnc2)C(C(=O)OCC)=C(N)O1 (stereo not given)	-6	-1	-9	-9%	-0.9	-42%[inhibitor]
CCN(CC)S(=O)(=O)c1ccc(NC(=O)CSc2ncnc3ccccc23)cc1	-5	-10	-8	-32%	-0.7	25%
COc1ccc(C(=O)C2CCCN(C(=O)Cn3nc(C)nc3C)C2)cc1F (stereo not given)	0	-2	-7	.	-3.0	-49%
CC(=O)c1c(C)[nH]c(C(=O)OCC(=O)c2ccc3c(c2)NC(=O)CO3)c1C	-6	.	16	-4%	1.9	?
CCOC(=O)C1=CC[C@H]2c3c(c4ccccc4n3C)C(=O)C1N2C(=O)OC(C)(C)C	-6	-1	-6	-17%	-2.7	?
O=C(O)CCNC(=O)c1ccc(NC(=O)Cc2ccc(Cl)cc2)cc1	-2	0	-3	9%	-1.8	6%[15.4 µM]
CN1CCN(c2ccccc2NC(=O)c2sc3ccccc3c2Cl)CC1	1	-3	-11	-1%	-3.5	27%[15.4 µM]
CCOC(=O)c1[nH]c2ccc(OCC)cc2c1NC(=O)CN1CCN(c2ccccn2)CC1	-12	-23	15	-18%	-2.8	7%
CCOC(=O)c1c(C)[nH]c(C(=O)OCCOc2ccccc2C)c1C	-6	2	-1	-11%	-2.5	-49%[inhibitor]
Cc1cc(CN(C)C(=O)c2cc(COc3ccc4ncccc4c3)on2)on1	-4	8	-1	-20%	1.1	19%
COc1cc(NC(=O)c2cc(-c3ccco3)on2)cc(OC)c1OC	1	-2	-16	2%	-2.2	-10%
CCOc1cc(S(=O)(=O)N2CCN=C2Cc2ccccc2)ccc1F	9	5	-5	10%	0.0	-1%[15.4 µM]
COCCN(Cc1cc2cc3c(cc2nc1Cl)OCO3)C(=O)Nc1ccc(OC)cc1	-4	.	-4	9%	5.6	?

Single records, from the list above. Values in the order: Six1-Eya2 inh, CtBP-E1A inh, D2 PAM, gsp antagonist, D2 ag, gsp agonist
Results for CCOC(=O)Cn1c(=O)oc2cc(S(=O)(=O)N3CCCc4ccccc43)ccc21 → -3, 1, -3, -3%, -3.7, -35%[inhibitor]
Results for O=C(NCc1ccc(Cl)cc1Cl)Nc1nc([C@@H]2O[C@H](CO)[C@@H](O)[C@H](O)[C@H]2O)cs1 → -2, 3, -7, ., 7.5, .
Results for O=[N+]([O-])c1ccc(CNC2CCCc3ccccc32)cc1 (stereo not given) → -4, 2, -20, 4%, 0.1, 21%
Results for CN1CCN(c2ccccc2NC(=O)c2sc3ccccc3c2Cl)CC1 → 1, -3, -11, -1%, -3.5, 27%[15.4 µM]
